Screening data: PubChem BioAssay, several laboratories
Beta2AR agonist: human beta-2 adrenergic receptor agonism by FAP; P07550; Am2.2-beta2AR cells, FAP receptor internalization, flow cytometry; reference of the scale not given here; response, % (no concentration beside the values); hit rate 0.43% among 340,000;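 active means response above a set limit, near 3 SD of response in nonfluorescent compounds, cut at about 42% in these data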;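 further: stock transfer was 100 nL into about 11 µL; a reference agonist was the positive control; negative values mostly stem from fluorescent compounds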
UCH37 DUB inh: human UCH37 deubiquitinating enzyme inhibition | purified proteasome/UCH37, Ub-AMC cleavage fluorescence | inhibition, % (no concentration beside the values) | AID 588478 | hit rate 0.33% among 330,000;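 active means mean of two replicates above 20%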;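 further: 0% = compound-free wells with enzyme and 100% = wells lacking proteasome; stock transfer was 100 nL into about 20 µL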
Target sequence (Q9Y5K5 whole entry, looked up): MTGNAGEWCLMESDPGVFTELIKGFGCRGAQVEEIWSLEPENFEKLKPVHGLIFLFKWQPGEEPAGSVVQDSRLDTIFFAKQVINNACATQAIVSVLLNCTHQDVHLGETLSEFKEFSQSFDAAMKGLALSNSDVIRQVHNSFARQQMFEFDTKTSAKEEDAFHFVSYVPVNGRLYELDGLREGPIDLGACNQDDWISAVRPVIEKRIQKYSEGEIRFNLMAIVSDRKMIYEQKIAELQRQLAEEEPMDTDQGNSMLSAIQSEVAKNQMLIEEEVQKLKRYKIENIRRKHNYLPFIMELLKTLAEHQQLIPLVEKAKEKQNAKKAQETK
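Material: Human UCH37 enzyme supplied as purified proteasome complex | Schedule: 30 min preincubation with enzyme, 25 min cleavage at room temperature | Detection: AMC fluorescence 355/460 nm | Measure: % inhibition of Ub-AMC cleavage fluorescence | Controls: Wells without proteasome as full block, compound-free enzyme plus substrate as uninhibited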
Vif A3G: inhibitors of Vif binding to APOBEC3G peptide, primary screen, biochemical, TR-FRET, GST-Vif 1-94, biotin-A3G peptide, dose response retest (AID 1117319) | hit rate 0.57% among 260,000 | inhibition, %, or IC50 in µM where a hit was titrated | TR-FRET GST-Vif / biotin-A3G peptide binding; higher % means a stronger effect; test concentration not given here; strong numbers were not always called active;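 active means above the screen mean plus three standard deviations and confirmed in dose response; inconclusive means results disagree or hit not tested in dose response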;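 further: Vif residues 1-94 fused to GST binding biotinylated APOBEC3G peptide 110-148; 0% = full assay without inhibitor and 100% = GST in place of GST-Vif; retest series ran down from 100 µM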
Bfl-1 A1 inh: inhibitors of the anti-apoptotic protein A1, read as caspase activation; MEF A1-2A-BIM cells, Caspase-Glo 3/7 luminescence, 3 h; percent of clofoctol response, vehicle zero; caspase activation, % (test concentration not listed); hit rate 0.066% among 330,000;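 active means over half of replicate activation scores above 10%, or exactly half above 10 with the replicate mean above 10; inconclusive means replicate mean below 10 yet half the replicates above 10; inactive means over half of replicates below 10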;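 further: wells of about 30 µL received 50 nL stock; many hits fall short of the cut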
HNF4A DNA FP: change in binding of human HNF4 alpha to DNA | P41235 | hit rate 0.3% among 360,000 | activity change, % at 10 µM | HNF4a-FITC DNA binding, fluorescence polarization, 1 h; in the data active means activity change above about 30%, passing the limit was not always enough;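 further: controls were the assay level and a saturating level of protein; the project sought stronger binding though the title names inhibitors; some compounds called inactive have numbers as strong as hits; positive values seem to mean higher polarization but the record does not say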
Target sequence (P41235 whole entry, looked up): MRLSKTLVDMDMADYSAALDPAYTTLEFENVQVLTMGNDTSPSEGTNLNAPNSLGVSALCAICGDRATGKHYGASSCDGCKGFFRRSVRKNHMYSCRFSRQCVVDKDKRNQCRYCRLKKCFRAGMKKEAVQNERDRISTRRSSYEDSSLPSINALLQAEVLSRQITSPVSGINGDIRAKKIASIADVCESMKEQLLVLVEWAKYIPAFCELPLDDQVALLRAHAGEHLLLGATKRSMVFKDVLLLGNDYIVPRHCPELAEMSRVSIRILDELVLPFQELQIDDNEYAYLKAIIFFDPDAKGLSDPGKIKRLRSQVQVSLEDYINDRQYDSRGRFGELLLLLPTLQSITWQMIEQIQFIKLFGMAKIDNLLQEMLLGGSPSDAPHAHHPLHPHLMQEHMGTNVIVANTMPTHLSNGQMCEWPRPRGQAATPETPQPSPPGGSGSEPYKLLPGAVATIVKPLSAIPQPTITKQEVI
Ecoli growth: blocks Escherichia coli growth | hit rate 0.21% among 330,000 | OD600 absorbance (no concentration beside the values) | OD600, 23 h; stronger effect = lower value | AID 1053175;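 active means OD600 absorbance below the run mean of sample wells minus 3.6 SD, in any replicate, cut at about 0.56 in these data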;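 further: stock transfer was 300 nL into about 60 µL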
LANA-H2A inh: blocks KSHV LANA binding to histone H2A/H2B | Q9QR71 | AID 2629 | cell-free LANA-H2A/H2B peptide, fluorescence polarization | inhibition, % (concentration not given with the values) | hit rate 0.6% among 320,000; in the data active means inhibition mostly above about 10%, no sharp cut-off; inactive means mostly below about 6.7%;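 further: stock transfer was 7.5 nL into about 10 µL; 0% = median of vehicle wells and 100% = median of positive control wells; one replicate is shown; the record names a cut of 25% in any replicate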
* marks the source's active call; other numbers are inactive results; ? = inconclusive; . = no result given; & = joins results of further samples.

SMILES,Beta2AR agonist,UCH37 DUB inh,Vif A3G,Bfl-1 A1 inh,HNF4A DNA FP,Ecoli growth,LANA-H2A inh
CCn1ncc(NC(=S)NCCc2ccc(OC)c(OC)c2)c1C(N)=O,1,2.8,15%,0.0,3.0,0.68,-1.3
CCc1ccc(NC(=O)Cn2cccc2)cc1,-2,1.8,10%,0.3,0.3,0.69,-2.8
Nc1c(N2CCN(c3ccccc3)CC2)c2ccccc2oc1=O,-7,0.8,2%,-1.8,-2.8,0.71,-2.0
COc1ccc2c(c1)C(=O)CC(c1ccccc1)O2 (stereo unspecified),-2,-61,-7%,.,-3.8,0.71,.
O=C(N/N=C/c1cc(Br)c(O)c(Br)c1)c1cccc(C(F)(F)F)c1,0,.,17%,-0.8,-1.0,.,2.3
Cc1csc(=O)n1CC(=O)OCC(=O)c1ccc(Br)cc1,-6,3.4,59%,-0.5,-2.4,0.66,0.2
COc1cc(C(=O)N/C(=C/c2ccc(F)cc2)C(=O)NC(C(=O)O)c2ccccc2)cc(OC)c1OC (stereo unspecified),-18,2.8,.,0.0,2.5,0.63,5.1
COc1ccc(C(=O)n2nc(-c3ccc(C)cc3)nc2N)cc1OC,-5,-10,28%,-1.2,-1.8,0.73,-0.7
CC(=O)Nc1ccc(S(=O)(=O)Nc2nc(C)nc3sc(C)c(C)c23)cc1,14,1.2,.,0.1,0.7,0.67,0.3
CCN(CC)C(=O)c1cc2c(=O)c3cc(F)ccc3oc2nc1C,-6,-13,0%,0.2,12,0.73,2.6
C=CCn1c(SCC(=O)Nc2ccc(N3CCOCC3)cc2)nnc1-c1ccncc1,8,-0.3,.,-0.3,3.4,0.68,-1.1
Cc1ccccc1-c1nc(CS(=O)(=O)CC(=O)N2CCc3ccccc32)c(C)o1,4,2.1,-7%,1.1,2.2,0.73,7.9
Cc1ccc(C2/C(=C(\O)c3ccc4c(c3)OCCO4)C(=O)C(=O)N2Cc2cccnc2)cc1 (stereo unspecified),8,8.4,.,0.1,0.6,0.67,-1.8
O=S(=O)(/N=C(/Nc1ccccc1F)c1ccccc1)c1ccccc1,1,-0.4,-1%,-1.5,-1.7,0.7,-2.1
CCCc1nc(SCC(=O)N2CCCC2)c2ccccc2n1,-9,3.4,0%,?,2.8,0.69,0.0
C=CCNc1nc(N)c([N+](=O)[O-])c(N2CCCCCC2)n1,-9,6.7,.,-0.2,-6.1,0.7,-2.3
CC(C)N(Cc1nc(-c2ccccc2)no1)C(=O)CN1C(=O)c2ccccc2C1=O,-5,0.1,21%,0.2,0.4,0.67,2.7
CC1CCCN(C(=O)Cn2c(=O)oc3cc(S(=O)(=O)N4CCCCC4C)ccc32)C1 (stereo unspecified),14,2.9,.,.,-1.1,0.74,.
Cc1cc([N+](=O)[O-])nn1CCCC(=O)Nc1ccc(Cl)cc1Cl,-7,0.8,-3%,-0.2,-2.8,0.67,3.6
COc1ccc(CN2CCN(Cc3cccc4nonc34)CC2CCO)c(C)c1C (stereo unspecified),-3,1.2,5%,-0.3,-0.4,0.7,2.4
O=C(N/N=C/c1cccc([N+](=O)[O-])c1)c1c[nH]c2ccccc12,4,.,.,-0.8,1.4,.,-12
c1cc2c3c(cccc3c1)NC1(CCCC1)N2,11,-232,2%,.,0.1,0.67,.
Cc1[nH]n(-c2ccccc2)c(=O)c1C(=O)Nc1ccccc1,3,4.1,.,-0.4,-2.3,0.69,2.9
Cc1ccc2c(C(=O)CN3CCCC(C)C3)c(C)[nH]c2c1 (stereo unspecified),4,3.6,-1%,0.4,-6.9,0.7,0.6
COc1ccccc1CNC(=S)NC1CCCCC1,-4,-0.1,-4%,0.7,1.2,0.69,0.4
CCC(=O)N1CCN(c2ccc(NC(=O)c3ccc(N4CCOCC4)c([N+](=O)[O-])c3)cc2)CC1,-1,5.5,-2%,0.2,1.6,0.68,-4.5
O=C(NNc1nc2c(F)cccc2s1)c1ccc(F)cc1,2,-2.0,-10%,-0.8,-0.4,0.63,-4.8
Oc1ccccc1C=NC1CCCCC1N=Cc1ccccc1O (stereo unspecified),7,2.8,.,1.2,-0.9,0.67,18
O=C(COc1ccc(-n2ccnc2)cc1)Nc1cccc(Cl)c1,-4,1.4,-7%,1.2,-0.5,0.66,-2.5
COc1cccc(C(=O)Nc2ccccc2C(=O)NC2CC2)c1,0,3.6,-2%,1.3,2.4,0.72,-3.1
COc1ccc(/C=N/OCC(=O)NC(c2ccccc2)c2ccccc2)c(OC)c1,3,.,.,0.2,-3.3,.,-2.0
O=C(CCCn1c(=O)[nH]c2cc(Cl)ccc2c1=O)N1CCN(c2ccc([N+](=O)[O-])cc2)CC1,-9,3.2,-7%,.,3.0,0.74,.
CN(C(=O)COC(=O)CNC(=O)C1CCCCC1)c1ccccc1,-4,-0.1,-10%,-0.5,0.1,0.66,-0.1
CC(=O)c1ccc(Nc2ccc(-c3ccccc3C)nn2)cc1,-13,-2.3,-7%,-1.1,10,0.66,-0.2
Cc1cccc(C)c1NC(=O)CNC(=O)CCC(=O)N1CCOCC1,10,5.7,10%,0.6,-3.4,0.65,-1.7
Cc1cc(C)n(Cc2ccccc2)c(=O)c1S(=O)(=O)c1ccccc1,-2,-1.0,-22%,0.3,-1.7,0.79,-8.4
Clc1ccc(-c2nnc(N3CCOCC3)o2)cc1,3,-1.5,2%,-0.9,2.0,0.66,-8.4
CC(=O)Nc1nc2c(ccc3ccccc32)s1,1,-2.5,.,0.0,-0.7,0.65,-2.1
Cc1ccc(C2=NOC(C)(c3nnc(-c4ccncc4)o3)C2)cc1 (stereo unspecified),0,0.1,.,-0.2,-3.2,0.61,-1.7
O=C(C[n+]1cc(Br)cc2ccccc21)c1ccccc1,-58,-0.8,.,-0.4,26,0.69,2.6
CC(=O)N1c2ccc(S(=O)(=O)N3CCCCC3)cc2CC1C(=O)NCc1ccccc1C (stereo unspecified),-7,4.9,.,-0.6,-0.7,0.67,0.2
Cc1ccccc1C(=O)NNC(=O)C1CC(=O)N(c2ccc3c(c2)OCCO3)C1 (stereo unspecified),1,5.0,.,0.4,0.6,0.65,5.4
CN(C)c1cccc(C(=O)OCC(=O)NC(=O)NCc2ccccc2)c1,-12,-70,-4%,0.8,4.2,0.73,0.5
N/C(Cc1cccs1)=N\OC(=O)COc1ccc(Br)cc1,-12,0.3,32%,0.6,-0.4,0.79,-3.4
O=C(COC(=O)/C=C/c1ccco1)NCCN1C(=O)CSC1=O,-8,6.0,.,.,-2.8,0.68,.
Cc1ccccc1CSCC(=O)NNC(=S)NCC1CCCO1 (stereo unspecified),-3,0.4,.,0.9,-0.9,0.71,-12
COc1ccc(NC(=O)CS(=O)CC(=O)Nc2ccc(NC(C)=O)cc2)cc1 (stereo unspecified),9,2.8,7%,-0.4,0.5,0.67,1.2
CCOC(=O)C1=C(C)NC(C)=C(C(=O)OCC)C1c1ccc(Br)o1,0,-3.6,8%,0.0,0.8,0.66,1.0

Single records, from the list above. Order of screens: Beta2AR agonist, UCH37 DUB inh, Vif A3G, Bfl-1 A1 inh, HNF4A DNA FP, Ecoli growth, LANA-H2A inh
Record of CC(=O)N1c2ccc(S(=O)(=O)N3CCCCC3)cc2CC1C(=O)NCc1ccccc1C (stereo unspecified) = -7, 4.9, ., -0.6, -0.7, 0.67, 0.2
Record of Clc1ccc(-c2nnc(N3CCOCC3)o2)cc1 = 3, -1.5, 2%, -0.9, 2.0, 0.66, -8.4
Record of O=C(C[n+]1cc(Br)cc2ccccc21)c1ccccc1 = -58, -0.8, ., -0.4, 26, 0.69, 2.6

Additional results follow:
SMILES,Beta2AR agonist,UCH37 DUB inh,Vif A3G,Bfl-1 A1 inh,HNF4A DNA FP,Ecoli growth,LANA-H2A inh
O=C(COC(=O)CNC(=O)c1ccc(Cl)cc1Cl)NNC(=O)c1ccccc1,-1,0.3,5%,1.5,-0.5,0.7,3.7
Cc1sc2ncnc(N3CCN(CCOc4ccc(Cl)cc4)CC3)c2c1C,0,1.8,-3%&-6%,0.2,1.9,0.72,-5.9
CC(=O)NS(=O)(=O)c1cccnc1Nc1cccc(Cl)c1,4,4.1,70%,0.5,3.4,0.82,1.7
CC1(C)CC(NC(=O)C23CCC(C)(C(=O)C2=O)C3(C)C)CC(C)(C)N1 (stereo unspecified),-5,0.6,1%,0.3,1.5,0.69,-81
O=C(COc1ccccc1)N1CCCCCCC1,-7,3.0,.,-1.2,1.1,0.6,7.7
Cn1nc(C(F)(F)F)c(-c2ccc(F)cc2)c1NC(=O)c1cccnc1,2,0.0,-11%,0.7,0.0,0.64,-1.3
NNC(=O)c1ncoc1-c1ccc(Cl)cc1,-2,0.6,?,-0.1,-0.2,0.63,-3.6
CCCc1cc(C(=O)N2CCC(N3CCC(C(=O)NC(C)C)CC3)CC2)n(C)n1,3,-0.9,26%,1.0,0.3,0.69,-0.7
O=C(CS(=O)(=O)Cc1ccccc1)N1CCc2ccccc2C1,0,16,25%,.,2.3,0.68,.
COc1ccc(OC)c(C(=O)COC(=O)c2[nH]c(C)c(C(C)=O)c2C)c1,3,-49,-1%,.,5.6,0.66,.
O=C(CSc1nnc(-c2ccccc2)c(-c2ccccc2)n1)Nc1ncc(Cl)cc1Cl,2,4.3,.,-0.6,-0.8,0.73,0.0
Cc1ccc2c(c1)Sc1ccccc1CC2=O,1,3.7,0%,0.5,1.1,0.72,3.4
C#CC(CC)(CC)NC(=O)Nc1ccccc1C(=O)OC,-2,-10,-11%,-0.2,-2.8,0.73,5.7
Cc1ccc(C(=O)NC(C(=O)Nc2cccc(S(N)(=O)=O)c2)C(C)C)cc1 (stereo unspecified),11,3.2,?,0.8,1.7,0.68,-2.0
Nc1c(N=O)c(=O)[nH]c(=O)n1-c1ccccc1,-4,5.4,.,0.5,-3.2,0.69,4.7
CCOC(=O)CN(C(=O)CNC(=O)c1cccs1)C(C(=O)NC1CCCC1)c1ccncc1 (stereo unspecified),-11,0.7,2%,-0.1,-2.1,0.64,1.1

Outcome played no part in choosing rows. About 2.1% of those tested had a hit in this group.
